StopGo reporter – lowers the luciferase signal of an FMDV 2A StopGo reporter | human cells with a luciferase reporter of 2A StopGo recoding; control for the full effect not named in the record | Potency, µM (highest dose often 57.9 µM), inactives show at the top dose signal change, negative = less light | actives 1.2% (n = 410,000) | AID 1159524; active = well fitted falling curve with a large enough effect; inconclusive = small, poorly fitted or top-dose-only effect; inactive = no such curve, though single readings can be large or run the other way; tested in HEK293T cells; further: on the % scale 0 is the no-effect control and ±100 the full control effect; nearly all actives have a fitted effect of over 45% in size; luciferase light after 4 h
SARS PLP yeast – inhibitors of SARS-CoV papain-like protease in yeast. actives 0.19% (n = 330,000). S. cerevisiae expressing SARS-CoV PLpro, growth rescue; control for the full effect not named in the record. Potency, µM (titrated, usually from 32.9 µM), for the others: at the highest dose activity, positive = growth rescue; active means well fitted rising curve with a large enough effect; inconclusive means small, poorly fitted or top-dose-only effect; inactive means no such curve, though single readings can be large or run the other way; further: 0% is about no effect; nearly all actives have a fitted effect of over 55% in size; growth read by luminescence after 48 h
RE007 growth inh – less growth of the S. pombe RE007 Vpr strain. actives 0.21% (n = 360,000). Potency, µM (series often up to 92.2 µM), without a hit: at the top dose activity change, negative = less growth. S. pombe RE007 Vpr strain, BacTiter-Glo ATP luminescence, 24 h; control for the full effect not named in the record. AID 651644; active = well fitted falling curve with a large enough effect; inconclusive = small, poorly fitted or top-dose-only effect; inactive = no such curve, though single readings can be large or run the other way;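 further: on the % scale 0 is the no-effect control and ±100 the full control effect; nearly all actives have a fitted effect of over 50% in size; the assay follows cell death caused by Vpr and the record does not say whether a fall means rescue or toxicity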
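Fission yeast RE007 carrying one integrated HIV-1 vpr copy, seeded at OD 0.01 in PMG+AL medium with 23 nL pinned compound. Grown 24 h at 30 degrees; viability read by BacTiter-Glo luminescence after 5 min.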
The depositor's hits bear a star; ? = inconclusive; [ ] = dose if it differs, or a comment. Potency means the concentration at half of the fitted maximal effect.

SMILES | StopGo reporter | SARS PLP yeast | RE007 growth inh
C#CCOCCOCCOCCNc1nc(N2CCN(C(=O)CCCCCCCCCCNC(=O)[C@H](CCCCN)n3cc(CCCC(=O)O)nn3)CC2)nc(N2CCN(C(=O)CCCCCCCCCCNC(=O)[C@@H]([C@H](C)O)n3cc(C)nn3)CC2)n1 | -7% | -5% | 18%
CC(C)(OC(=O)c1ccc(F)cc1)c1cc2ccccc2c(=O)o1 | 13% | 2% | 2%
Fc1ccccc1CSc1nnc2ccc(-c3ccncc3)nn12 | 13% | 1% | 6%
CCCCN1C(=N)N([C@@H](CCC)CN2CCC[C@H]2CN2C(N)=NC[C@H]2CC(C)C)C[C@H]1Cc1ccccc1 | -9% | 0% | 7%
C[C@@H]1CN([C@@H](C)CO)C(=O)c2cccc(NC(=O)c3ccncc3)c2O[C@@H]1CN(C)Cc1ccc(-c2ccccc2)cc1 | 0% | 2% | -19%
C[C@H]1CN([C@@H](C)CO)C(=O)c2cc(NC(=O)C3CCCCC3)ccc2O[C@H]1CN(C)S(=O)(=O)c1ccccc1 | -16% | 8% | -8%
COc1ccc(NC(=S)N2CCC(C(=O)c3ccc(F)cc3)CC2)c(OC)c1 | 23% | 0% | 2%
Nc1ccc(N=Nc2ccc(N)cc2)cc1 | 38%[activator] | -2% | -18%
COc1ccc(-c2noc(CCCCC(=O)N3CCN(c4cc(C)ccc4C)CC3)n2)cc1 | ? | 0% | 1%
O=C(NCc1ccccn1)c1ccc2c(=O)n(CCc3ccccc3)c(=O)[nH]c2c1 | -12% | 1% | -8%
Cc1cccc(Nc2nnc(SCC(=O)c3c(N)n(C4CC4)c(=O)[nH]c3=O)s2)c1C | -23% | 1% | 0%
CCOC(=O)C1(c2ccccc2)CCN(CCC(=O)Nc2ccc(F)cc2)CC1 | ? | 2% | -12%
CCOc1ccc(S(=O)(=O)N2CCC(C(=O)NCc3ccccc3CN3CCCC3)CC2)cc1 | 4% | 3% | -7%
O=C(N/N=C/c1ccco1)c1cc(-c2ccc(Cl)s2)[nH]n1 | 12% | -2% | 18%
CC(Sc1nc(N)cc(=O)[nH]1)C(=O)NNC(=O)c1cccc(Cl)c1 (stereo not drawn) | 7% | 1% | -3%
O=C1c2ccccc2N[C@@H]2C=CC[C@@H]2N1O | -16% | 6% | -17%
C[C@@H]1CN([C@@H](C)CO)C(=O)c2cccc(NC(=O)c3nc4ccccc4s3)c2O[C@@H]1CN(C)CC1CC1 | 7% | -5% | -22%
O=C(NCC1COc2ccccc2O1)c1cccc(S(=O)(=O)N2CCCCC2)c1 (stereo not drawn) | 12% | 4% | 10%
CCN(CC)C(=O)[C@H]1C[C@H](CC(=O)NCCc2ccccn2)C(=O)N2CCc3c([nH]c4cc(-c5ccco5)ccc34)[C@]12C | -19% | 5% | -10%
NC(=O)COc1ccc(-n2cnnn2)cc1 | 23% | -2% | 19%
CC(=O)c1sc(NC(=O)c2ccccc2)nc1-c1ccccc1 | 29% | -1% | ?
C=CC[C@@H](CC(=O)N[C@@H](CO)Cc1ccccc1)C(=O)N[C@@H](C)COC(=O)[C@@H](CC=C)Cc1ccc(F)cc1 | -20% | 2% | 4%
COc1ccccc1-n1c(C)nc2cc(C(=O)NCCN3CCOCC3)ccc21 | -13% | 1% | -14%
COc1cccc(NC(=S)N(CCCN2CCOCC2)C(C)c2cc3ccccc3o2)c1 (stereo not drawn) | 20% | 1% | -22%
Cc1ccc(CN(C)C(=O)CN2C(=O)NC(c3ccccc3)(c3ccccc3)C2=O)c(C)c1 | -35% | 1% | -9%

Other structures:
SMILES | StopGo reporter | SARS PLP yeast | RE007 growth inh
CC(C)(C)OC(=O)C[C@@H]1C/C=C\C[C@@H](CC(=O)N(CCO)Cc2ccccc2)C(=O)N[C@H](Cc2ccccc2)COC1=O | -5% | -32% | 6%
CC(=O)Oc1cccc(N2C(=O)c3ccc(C(=O)Nc4cccnc4)cc3C2=O)c1 | 16% | 0% | -4%
O=C(COC(=O)CC1CC2CCC1C2)Nc1ccc(Cl)c(S(=O)(=O)N2CCOCC2)c1 (stereo not drawn) | -6% | 1% | 2%
O=C(C1=COCCO1)N1CCN(S(=O)(=O)c2cccc(Br)c2)CC1 | -17% | -9% | ?
CCCN1C(=O)C(=O)c2cc(Cl)ccc21 | 0% | -24% | -4%
CC(=O)Nc1ccc(S(=O)(=O)N[C@@H](C)C(=O)OCC(=O)NC2CCCC2)cc1 | -16% | 1% | 4%
C[C@H](CO)N1C[C@H](C)[C@@H](CN(C)S(=O)(=O)c2cn(C)cn2)Oc2ccc(NC(=O)Cn3cnnn3)cc2C1=O | -20% | -30% | -3%
CC(c1ccccc1)[n+]1ccccc1 (stereo not drawn) | -22% | -2% | 3%
CCC(C)Sc1cccc(-c2nc3cc(C)ccn3c2NC2CCCCC2)c1 (stereo not drawn) | ? | -1% | ?
Cc1nn(-c2ccc(C(=O)NCC(c3ccco3)N3CCCC3)cc2)c(C)c1Cl (stereo not drawn) | -10% | 4% | -10%
CC(C)Cn1c(N)c(C(=O)COC(=O)c2ccccc2Cl)c(=O)n(C)c1=O | ? | -1% | -13%
COc1ccccc1CNC(=O)COC(=O)c1cc(=O)c2ccccc2o1 | -8% | 0% | 6%
C=CCN(c1ccccc1OC)S(=O)(=O)c1cccc(C(=O)OCC(=O)N2CCOCC2)c1 | 0% | 3% | 4%
CCCCN(C(=O)C1CCC1)c1c(N)n(Cc2ccccc2)c(=O)[nH]c1=O | -16% | 2% | 6%
COc1cc(OC)cc(C(=O)NNC(=O)CCNS(=O)(=O)c2ccc(Br)cc2)c1 | -30% | -1% | 12%
COc1cccc(NC(=O)CN2C(=O)NC3(CCc4ccccc43)C2=O)c1 (stereo not drawn) | -14% | 7% | 4%
Cc1nc2ccccc2c(=O)n1/N=C/c1ccco1 | 13% | 1% | 1%
Cc1nc(SC(C)C(=O)Nc2c(C)n(C)n(-c3ccccc3)c2=O)nc(C)c1C (stereo not drawn) | 16% | 1% | 3%
Cc1ccc(NC(=O)COC(=O)C2CCC(=O)N2)c([N+](=O)[O-])c1 (stereo not drawn) | -5% | -5% | 9%
C[C@H]1CN([C@@H](C)CO)C(=O)c2cccc(NC(=O)Nc3ccc(C(F)(F)F)cc3)c2O[C@@H]1CN(C)S(=O)(=O)c1ccc(Cl)cc1 | -24% | 4% | 6%
COC(=O)C1=C(c2cccc(OCc3ccccc3)c2)C[C@@H]2CC[C@H]1N2C(=O)NCCOc1ccccc1Cl | -18% | 5% | -5%
CC(=O)Nc1ccc(SCCN2CC[C@@H](C)CCC2=O)cc1 | 32%[activator] | 0% | -17%
Cc1ccc(C(=O)NCC(=O)NC2CCC(C)CC2)s1 (stereo not drawn) | 44%[activator] | -2% | 0%
Cc1ccc(NC(=O)C(c2ccccc2)N2CCN(CC(=O)NC3CC3)CC2)cc1Cl (stereo not drawn) | 12% | 0% | -2%
CCC(=O)N1N=C(c2ccc(C)o2)CC1c1ccc(N(C)C)cc1 (stereo not drawn) | 45%[activator] | 1% | -18%

(cont.)
SMILES | StopGo reporter | SARS PLP yeast | RE007 growth inh
C[C@@H](O)CC#Cc1ccc2oc(=O)c(-n3cc(-c4ccsc4)nn3)cc2c1 | -3% | 5% | 20%
COc1ccccc1N/C=C/c1onc(C)c1[N+](=O)[O-] | ? | -4% | -19%
COC(=O)C1=C(c2ccc(F)cc2F)C[C@@H]2CC[C@H]1N2C(=O)NCc1ccco1 | -8% | -1% | 5%
Cc1ccc(S(=O)(=O)N2CCCCC2)cc1NC(=O)c1ccc(Cl)nc1 | ? | -1% | 7%
O=C(COc1ccc(Br)cc1Cl)NC(=O)NC1CCCC1 | 0% | 0% | -17%
C[C@@H]1CN([C@H](C)CO)C(=O)Cc2cc(NC(=O)Cn3cnnn3)ccc2O[C@@H]1CN(C)Cc1ccc(Cl)c(Cl)c1 | ? | -5% | -5%
Cc1cccc(NC(=O)CN(C)C(=O)C2CCCC2)c1C | 5% | -8% | 18%
C[C@H](NC(=O)c1ccccc1)C(=O)OCC(=O)Nc1ccc2c(c1)OCO2 | -9% | 4% | 5%
COC(=O)c1ccc(COC(=O)C2CC(O)CN2S(=O)(=O)c2ccc([N+](=O)[O-])cc2)cc1 (stereo not drawn) | -21% | 6% | 21%
CC1CCCCC12NC(=O)N(CC(=O)OCc1cccc(F)c1)C2=O (stereo not drawn) | -7% | -1% | 8%
O=C(CCCN1C(=O)c2ccccc2C1=O)NCCCn1ccnc1 | -10% | 2% | 0%
COc1cc(C(=O)NCC(c2ccccc2)N(C)C)ccc1OCc1c(C)noc1C (stereo not drawn) | 15% | 1% | -7%
COc1ccc(NS(=O)(=O)c2cccc(C(=O)NNC(=O)c3ccc(=O)[nH]c3)c2)cc1 | -15% | 0% | 2%
Cc1ccc(C(=O)OCC(=O)c2ccc(CC(=O)N3CCOCC3)s2)cc1C | 0% | 3% | 18%
CC(Sc1nnc(N)s1)C(=O)NCc1ccc2c(c1)OCO2 (stereo not drawn) | -8% | 4% | -12%
COc1ccc(NC(=O)Nc2ccc3c(c2)C(=O)N([C@@H](C)CO)C[C@@H](C)[C@@H](CN(C)S(=O)(=O)c2cn(C)cn2)O3)cc1 | 4% | 1% | -1%
C[C@@H]1CN([C@@H](C)CO)C(=O)Cc2cc(NS(=O)(=O)c3ccccc3)ccc2O[C@H]1CN(C)Cc1ccncc1 | -18% | -8% | -5%
Cc1ccc(CNC(=O)COC(=O)c2ccc(S(=O)(=O)NCc3ccco3)cc2)cc1 | -22% | 1% | -3%
O=C(CCS(=O)(=O)c1cccs1)Nc1ccc(C(=O)NC2CCN(Cc3ccccc3)CC2)cc1 | -13% | -2% | 6%
C[C@@H]1CCCCCCCCC(=O)OCCN(C(=O)OC(C)(C)C)[C@H](C)CCCCCCCCC(=O)OCCN1C(=O)OC(C)(C)C | -12% | -1% | 5%
COc1cc(NC(=O)COC(=O)c2ccc([N+](=O)[O-])s2)cc(OC)c1OC | -24% | 1% | -7%
CN(C)C1(CNC(=O)c2ccc(NS(=O)(=O)c3ccc(Cl)c(Cl)c3)cc2)CCCCC1 | 15% | 5% | 2%
O=C1[C@H]2[C@@H](c3ccc(F)cc3)N3C(=O)N(c4ccc(C(F)(F)F)cc4)C(=O)[C@@]3(Cc3ccccc3)[C@H]2C(=O)N1C1CCCCC1 | 0% | -3% | -11%
C=CCCN([C@H](CO)Cc1ccccc1)S(=O)(=O)c1ccccc1Br | 15% | -5% | -16%
O=C(N=Nc1c(O)[nH]c2ccc(F)cc12)c1ccc(NS(=O)(=O)c2cccs2)cc1 | 25% | -3% | 2%

Grouped by structure: those above with an aryl thioether with sulfur outside any ring.
SMILES | StopGo reporter | SARS PLP yeast | RE007 growth inh
Fc1ccccc1CSc1nnc2ccc(-c3ccncc3)nn12 | 13% | 1% | 6%
Cc1cccc(Nc2nnc(SCC(=O)c3c(N)n(C4CC4)c(=O)[nH]c3=O)s2)c1C | -23% | 1% | 0%
CC(Sc1nc(N)cc(=O)[nH]1)C(=O)NNC(=O)c1cccc(Cl)c1 (stereo not drawn) | 7% | 1% | -3%
CCC(C)Sc1cccc(-c2nc3cc(C)ccn3c2NC2CCCCC2)c1 (stereo not drawn) | ? | -1% | ?
Cc1nc(SC(C)C(=O)Nc2c(C)n(C)n(-c3ccccc3)c2=O)nc(C)c1C (stereo not drawn) | 16% | 1% | 3%
CC(=O)Nc1ccc(SCCN2CC[C@@H](C)CCC2=O)cc1 | 32%[activator] | 0% | -17%
CC(Sc1nnc(N)s1)C(=O)NCc1ccc2c(c1)OCO2 (stereo not drawn) | -8% | 4% | -12%

Going on with the list.
SMILES | StopGo reporter | SARS PLP yeast | RE007 growth inh
Cc1cccc(C(=O)NCC(=O)Nc2ccc(S(=O)(=O)Nc3nc(C)cc(C)n3)cc2)c1 | 8% | 3% | -8%
O=C1CC2CCCN2C=C1I (stereo not drawn) | -21% | -6% | -15%
CN=C(Nc1ccc(C(=O)OC)s1)c1ccccc1 | -2% | 1% | -6%
Nc1nc(N)c(N=Nc2ccc(Cl)cc2)c(=O)[nH]1 | 32%[activator] | 1% | -5%
CCCOC(=O)c1ccc(-[n+]2c(-c3ccccc3)cc(-c3ccccc3)cc2-c2ccccc2)cc1 | 14µM* | 2% | 0%
COC(=O)c1ccc(NC(=O)CCN2C(=O)NC(C)(C)C2=O)cc1 | -5% | 4% | -3%
Cc1c(Cl)cccc1NC(=O)CNC(=O)C1CC(=O)N(C2CCCC2)C1 (stereo not drawn) | -2% | 0% | 9%
COc1ccc(C2CC(c3cccc(Cl)c3)=NN2c2ccc(S(N)(=O)=O)cc2)cc1 (stereo not drawn) | ? | 10% | -2%
Cc1cc(OCC(=O)OC(C)C(=O)Nc2ccc(N3CCOCC3)cc2)ccc1Cl (stereo not drawn) | 5% | -1% | -5%
COc1ccc(C(=O)OCC(=O)Nc2sccc2C(N)=O)cc1[N+](=O)[O-] | -30% | -1% | -10%

Assay outcomes (PubChem BioAssay)

Only part of the results is shown; rates above refer to the full screens.
